RecA splice inh = blocks M. tuberculosis RecA intein splicing; cell-free RecA intein splicing, fluorescence; inhibition, %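 (about 9 µM by stock and volumes)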; P9WHJ3; hit rate 0.75% among 290,000; in the data active = inhibition above about 30%; inconclusive = no clear call, values can overlap the other calls;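 note: 0% = vehicle wells and 100% = reference inhibitor control wells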
Target sequence (P9WHJ3 whole entry, looked up, canonical isoform): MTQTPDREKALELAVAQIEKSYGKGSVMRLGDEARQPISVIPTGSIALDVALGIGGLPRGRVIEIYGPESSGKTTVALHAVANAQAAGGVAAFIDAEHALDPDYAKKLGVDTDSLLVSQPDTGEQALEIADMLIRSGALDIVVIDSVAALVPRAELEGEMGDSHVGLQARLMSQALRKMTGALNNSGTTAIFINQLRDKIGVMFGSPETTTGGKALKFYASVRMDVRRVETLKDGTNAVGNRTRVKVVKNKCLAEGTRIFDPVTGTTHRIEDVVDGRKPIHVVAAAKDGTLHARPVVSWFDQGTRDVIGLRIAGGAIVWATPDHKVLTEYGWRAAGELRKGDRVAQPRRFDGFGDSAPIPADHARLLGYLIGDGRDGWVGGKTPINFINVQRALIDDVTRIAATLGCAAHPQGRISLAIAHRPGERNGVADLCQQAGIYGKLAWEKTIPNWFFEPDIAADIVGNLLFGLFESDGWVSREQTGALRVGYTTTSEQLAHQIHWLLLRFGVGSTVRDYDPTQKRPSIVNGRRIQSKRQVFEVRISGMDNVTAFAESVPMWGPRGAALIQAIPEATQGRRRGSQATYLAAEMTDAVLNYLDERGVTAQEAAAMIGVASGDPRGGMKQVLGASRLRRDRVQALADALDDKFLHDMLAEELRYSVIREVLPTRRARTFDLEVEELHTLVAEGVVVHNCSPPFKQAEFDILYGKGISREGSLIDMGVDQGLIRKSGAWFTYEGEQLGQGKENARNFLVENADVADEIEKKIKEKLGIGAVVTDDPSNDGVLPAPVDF
Arbovirus inh = arbovirus infection inhibition | hit rate 0.37% among 200,000 | arbovirus infection cell-based antiviral screen | inhibition, % at 10 µM;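 active = inhibition from about 30%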;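 note: bluetongue infection of BSR cells; cell survival read as ATP light after 72 h; 0% = infected wells without compound and 100% = uninfected wells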
Mtb H37Rv = M. tuberculosis H37Rv growth inhibitors, H37Rv strain (AID 1626) | M. tuberculosis H37Rv growth inhibition; higher % means a stronger effect | one-dose inhibition, % at 10 µM; IC50 in µM for titrated hits | hit rate 0.95% among 220,000;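 active = confirmed in a dose series; inconclusive = inhibition above 80% but not taken into the dose series; inactive = below 80% or under 30% at every dose of the series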;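 note: bacteria incubated seven days before Alamar blue readout; 0% = bacteria only wells and 100% = bacteria with antibiotic wells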
Mtb betalactam = beta-lactam sensitization of Mtb H37Rv | inhibition, % at 25 µM | AID 434955 | M. tuberculosis H37Rv growth with meropenem, percent inhibition; hits of this screen are not shown here | hit rate 0.27% among 330,000;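 active = about 74% or more and at least 40 points above the plate without the antibiotic, then above 30% in a dose series; inconclusive = first-round hits that could not be retested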;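 note: growth measured after seven days incubation then overnight dye step; 0% = bacteria only wells and 100% = bacteria with antibiotic; twin plates without the antibiotic show which effects depend on it; some results filed as inactive read as strong as hits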
YopH inh = YopH (Yersinia) phosphatase inhibition; fluorescence Ex485/Em525; inhibition, %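 (about 10 µM by stock and volumes)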; hit rate 0.16% among 140,000; AID 898;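 active = inhibition of 50% or more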;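 note: controls were vehicle for no effect and minimum signal wells for full effect; inactives centre near -20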
* hit, by the source's call. A portion of the library; count on the stated rates, not on these rows.

How did CCCCn1c(=O)[nH]c(=O)c2c1nc(CN(C)Cc1cccc(OC)c1OC)n2CCC do in these assays?
RecA splice inh: -0.7; Mtb betalactam: 3.6

How did Cc1cccc(N2CC(O)(c3cccs3)[N+]3=C2CCCC3)c1 (stereo unspecified) do in these assays?
RecA splice inh: -0.3; Arbovirus inh: -2.0; Mtb H37Rv: 6.0%; Mtb betalactam: -3.1

Results for CC1(c2ccccc2)NC(=O)N(CC(=O)Nc2cc(Cl)ccc2N2CCOCC2)C1=O (stereo unspecified) ?
RecA splice inh: -2.6; Mtb betalactam: 4.6

How did Cc1nn2c(N3CCOCC3)c3c(nc2c1-c1ccccc1)CCCC3 do in these assays?
RecA splice inh: -1.1; Arbovirus inh: 0.4; Mtb H37Rv: -4.5%; Mtb betalactam: 10.3; YopH inh: -13.7

How did COc1ccc(Nc2ncnc3c2c(C)c(C)n3CCO)cc1 do in these assays?
RecA splice inh: -0.2; Mtb betalactam: -0.4

How did C=CCNc1ccc(C(=O)O)cc1 do in these assays?
RecA splice inh: 0.5; Arbovirus inh: -9.7; Mtb H37Rv: 1.5%; Mtb betalactam: -6.2; YopH inh: -37.4

What do the screens show for `c1ccc(NCc2cccnc2)cc1`?
Arbovirus inh: 1.7; Mtb H37Rv: 3.5%; Mtb betalactam: -12.1; YopH inh: -12.5

Results for O=C(COc1ccccc1)N/N=C/c1ccc2c(c1)OCO2 ?
RecA splice inh: -0.2; Arbovirus inh: -29.2; Mtb H37Rv: 37.9%; Mtb betalactam: 34.9

Results for Cc1cc(C(=O)O)oc(=O)c1 ?
RecA splice inh: 3.0; Mtb H37Rv: -5.0%; Mtb betalactam: 1.0

How did CCOC(=O)Nc1cccc(C(=O)O)c1 do in these assays?
RecA splice inh: -1.0; Arbovirus inh: -0.4; Mtb H37Rv: -14.0%; Mtb betalactam: -12.4; YopH inh: -26.4

How did CN(c1cccc(NC(=O)c2cccc([N+](=O)[O-])c2)c1)S(C)(=O)=O do in these assays?
RecA splice inh: 0.7; Arbovirus inh: -7.5; Mtb H37Rv: -5.2%; Mtb betalactam: -3.0

What do the screens show for `CCN(CC)C(=O)C1CCN(c2ncnc3c2cnn3-c2ccc(C)cc2C)CC1`?
RecA splice inh: -17.2; Arbovirus inh: 0.0; Mtb H37Rv: 8.8%; Mtb betalactam: -10.1; YopH inh: -31.4

How did CCOC(=O)N1CCC(NCCNC(=O)c2ccccc2Cl)CC1 do in these assays?
RecA splice inh: -1.0; Arbovirus inh: -1.9; Mtb H37Rv: -6.3%; Mtb betalactam: inconclusive; YopH inh: -30.3

How did Cc1ccc(OCC(=O)Nc2ccccc2C(=O)N2CCCC2)cc1 do in these assays?
RecA splice inh: 3.4; Mtb betalactam: -10.0

What do the screens show for `CC(C)Oc1ccc(CCC(=O)NNC(=O)CCC(=O)O)cc1`?
RecA splice inh: -0.6; Mtb H37Rv: -13.1%; Mtb betalactam: 1.5

What do the screens show for `CCCC(CCC(=O)Nc1ccc(S(N)(=O)=O)cc1)C(=O)O` (stereo unspecified)?
RecA splice inh: 5.1; Arbovirus inh: 11.5; Mtb H37Rv: -17.0%; Mtb betalactam: -10.3; YopH inh: -6.4

What do the screens show for `O=c1c(Cc2c(F)cccc2Cl)c(O)ccn1CCc1c[nH]c2ccccc12`?
RecA splice inh: 7.1; Arbovirus inh: -0.4; Mtb H37Rv: 4.1%; Mtb betalactam: 1.3

Results for C=CCn1c(SCc2nnc(-c3ccccc3)o2)nnc1C(O)c1ccccc1 (stereo unspecified) ?
RecA splice inh: -0.9; Arbovirus inh: 3.9; Mtb H37Rv: -4.7%; Mtb betalactam: -11.3; YopH inh: -5.2

What do the screens show for `Cc1cnc(NC(=O)/C=C/c2ccc(Br)o2)s1`?
RecA splice inh: -4.6; Mtb H37Rv: -7.2%; Mtb betalactam: -4.1

What do the screens show for `Clc1ccccc1Cn1c(/C=C/c2ccco2)nc2ccccc21`?
RecA splice inh: 19.4; Arbovirus inh: -37.2; Mtb H37Rv: 6.0%; Mtb betalactam: 17.4; YopH inh: -11.4

Results for Cc1cc(C)c2c(N)c(C(=O)NNC(=O)c3ccccc3)sc2n1 ?
RecA splice inh: -15.4; Arbovirus inh: 5.8; Mtb H37Rv: 1.9%; Mtb betalactam: -3.9

Results for COc1ccc(CC(C)NC2CCCCCC2)cc1 (stereo unspecified) ?
RecA splice inh: 0.2; Mtb betalactam: -0.7

What do the screens show for `Cc1cccc(N(C)C(=O)c2cc3c(=O)[nH]c4ccc(C)cc4c3s2)c1`?
RecA splice inh: 0.0; Mtb H37Rv: -2.4%; Mtb betalactam: 0.5

How did COc1ccc(S(=O)(=O)N/N=C(/C)c2cccc(NC(=O)c3ccccc3Cl)c2)cc1 do in these assays?
RecA splice inh: 5.3; Arbovirus inh: 37.0*; Mtb betalactam: -2.7; YopH inh: -35.0

How did O=C(/C=C/c1c(F)cccc1Cl)NCc1ccco1 do in these assays?
RecA splice inh: 2.4; Arbovirus inh: -8.0; Mtb H37Rv: 5.0%; Mtb betalactam: 8.4; YopH inh: 0.5

How did NS(=O)(=O)c1ccc(CCNC(=O)CN2CCCCC2)cc1 do in these assays?
RecA splice inh: -0.2; Arbovirus inh: 9.8; Mtb H37Rv: -1.9%; Mtb betalactam: -4.0

Results for O=C(Nc1ccccc1F)c1ccc2c(c1)CCN2S(=O)(=O)c1ccccc1 ?
RecA splice inh: -1.3; Mtb betalactam: 9.4

How did O=C(Nc1ccc([N+](=O)[O-])cc1)c1cncc(Br)c1 do in these assays?
RecA splice inh: -1.4; Arbovirus inh: 4.3; Mtb H37Rv: 7.5%; Mtb betalactam: 5.7

Results for Cc1ccc(NC(=O)CN(C)C(=O)Cn2cc(C(F)(F)F)ccc2=O)cc1 ?
RecA splice inh: -3.7; Arbovirus inh: 5.0; Mtb H37Rv: -4.4%; Mtb betalactam: -4.6; YopH inh: 2.1

What do the screens show for `O=C(Nc1cccnc1Cl)c1cc(-c2cccc(O)c2)on1`?
RecA splice inh: -1.2; Mtb betalactam: 11.4

How did CCOC(=O)c1ccc(NC(=O)C2C3CCCCC32)cc1 (stereo unspecified) do in these assays?
RecA splice inh: 5.8; Mtb betalactam: 88.8

Results for COC(=O)[C@@H](NC(=O)NC1CCN(Cc2ccccc2)CC1)C(C)C ?
RecA splice inh: 0.4; Arbovirus inh: 10.0; Mtb H37Rv: 3.0%; Mtb betalactam: -5.3; YopH inh: -52.2

Results for COc1ccc2oc(C(=O)NCCN3CCOCC3)c(C)c2c1OC ?
RecA splice inh: -1.7; Mtb betalactam: -23.2

Results for O=C(O)c1ccc(/C=C2\SC(=S)N(Nc3ccccc3)C2=O)cc1 ?
RecA splice inh: -3.9; Mtb H37Rv: 69.8%; Mtb betalactam: 84.5

Results for CC(NC(=O)/C=C/c1ccc(Br)cc1)c1ccccc1 (stereo unspecified) ?
RecA splice inh: 0.0; Arbovirus inh: 0.8; Mtb H37Rv: 4.8%; Mtb betalactam: -3.9; YopH inh: -26.9

What do the screens show for `CS(=O)(=O)c1cccc(NC(=O)C2CCCN2S(=O)(=O)c2ccc(F)cc2)c1` (stereo unspecified)?
RecA splice inh: 0.5; Mtb betalactam: -1.9

Results for Nc1c(N(Cc2ccccc2)C(=O)COc2ccc(F)cc2)c(=O)[nH]c(=O)n1Cc1ccccc1 ?
RecA splice inh: -0.4; Mtb betalactam: -4.8

What do the screens show for `CC(=O)c1c(N2CCN(Cc3ccc4c(c3)OCO4)CC2)nc(=S)n(-c2ccccc2)c1C`?
RecA splice inh: 0.8; Arbovirus inh: -3.1; Mtb H37Rv: -9.0%; Mtb betalactam: 3.1; YopH inh: 20.7

Results for NCCCNC(=O)c1cc2ccccc2[nH]1 ?
RecA splice inh: -4.7; Arbovirus inh: 4.2; Mtb H37Rv: -18.6%; Mtb betalactam: -5.9; YopH inh: -0.5

What do the screens show for `c1ccc(C2CCC(N3CCNCC3)CC2)cc1` (stereo unspecified)?
RecA splice inh: 0.1; Arbovirus inh: -16.1; Mtb H37Rv: 3.8%; Mtb betalactam: -6.6; YopH inh: 3.6

What do the screens show for `COc1ccc(-n2nc3c(c2NC(=O)CCCCl)CSC3)cc1`?
RecA splice inh: 2.4; Mtb betalactam: 0.8

What do the screens show for `O=C(Oc1cc(-c2ccccc2)no1)c1ccc(Cl)cc1`?
RecA splice inh: -1.6; Arbovirus inh: 9.5; Mtb H37Rv: 3.1%; Mtb betalactam: -1.6; YopH inh: -26.3

What do the screens show for `N#Cc1cc(N2CCOCC2)nc2ccccc12`?
RecA splice inh: -18.7; Mtb H37Rv: 2.4%; Mtb betalactam: -3.6

How did O=[N+]([O-])c1cc(-c2csc(NCCc3nc4cc(C(F)(F)F)ccc4n3CCCO)n2)ccc1Cl do in these assays?
RecA splice inh: 11.5; Mtb H37Rv: 0.7%; Mtb betalactam: -6.0

How did O=C(COC(=O)c1cc([N+](=O)[O-])ccc1N1CCOCC1)Nc1ncc(Cl)cc1Cl do in these assays?
RecA splice inh: 9.0; Mtb betalactam: 26.7

Brought forward from above: 3 entries, then new ones.
What do the screens show for `N#Cc1cc(N2CCOCC2)nc2ccccc12`?
RecA splice inh: -18.7; Mtb H37Rv: 2.4%; Mtb betalactam: -3.6

How did O=[N+]([O-])c1cc(-c2csc(NCCc3nc4cc(C(F)(F)F)ccc4n3CCCO)n2)ccc1Cl do in these assays?
RecA splice inh: 11.5; Mtb H37Rv: 0.7%; Mtb betalactam: -6.0

How did O=C(COC(=O)c1cc([N+](=O)[O-])ccc1N1CCOCC1)Nc1ncc(Cl)cc1Cl do in these assays?
RecA splice inh: 9.0; Mtb betalactam: 26.7

How did CCCN(CC(=O)Nc1ccc(F)c(F)c1F)C(=O)c1cc([N+](=O)[O-])ccc1N1CCOCC1 do in these assays?
RecA splice inh: 0.8; Mtb betalactam: -0.6

What do the screens show for `O=C(CCN1C(=O)c2ccccc2S1(=O)=O)Nc1nc2c(s1)CCCC2`?
RecA splice inh: -0.6; Arbovirus inh: 2.5; Mtb H37Rv: -7.0%; Mtb betalactam: 1.9; YopH inh: -19.9

What do the screens show for `O=C1N(Cc2cccnc2)C[C@@H]2C[C@@H](c3ccccc3C(F)(F)F)N3CCC[C@@]123`?
RecA splice inh: -2.0; Mtb H37Rv: 4.0%; Mtb betalactam: -11.9

Results for COCCCNC(=O)CN(c1cc(Cl)cc(Cl)c1)S(C)(=O)=O ?
RecA splice inh: -0.9; Arbovirus inh: -0.1; Mtb H37Rv: -5.9%; Mtb betalactam: -6.3; YopH inh: 1.6

How did COc1ccc(NC(=O)CC2C(=O)N(c3cccc(OC)c3)C(=O)N2C2CCCCC2)cc1 (stereo unspecified) do in these assays?
RecA splice inh: -6.1; Arbovirus inh: 2.3; Mtb H37Rv: 4.7%; Mtb betalactam: -3.1; YopH inh: -48.4

What do the screens show for `O=C(NCc1ccco1)c1cc([N+](=O)[O-])ccc1N1CCCCC1`?
RecA splice inh: 3.2; Arbovirus inh: -13.8; Mtb H37Rv: -0.5%; Mtb betalactam: 5.4; YopH inh: -12.0

What do the screens show for `O=[N+]([O-])c1cccc(N=NN(CCO)c2cccc([N+](=O)[O-])c2)c1`?
RecA splice inh: -0.4; Arbovirus inh: 8.4; Mtb H37Rv: 7.6%; Mtb betalactam: 5.7; YopH inh: -12.0

Results for O=C1CCCC2=C1C(c1cccs1)n1ncnc1N2 (stereo unspecified) ?
RecA splice inh: -1.6; Arbovirus inh: 5.3; Mtb H37Rv: 0.2%; Mtb betalactam: 0.9; YopH inh: 25.7

What do the screens show for `COc1cnc(-c2ccccc2)nc1Oc1ccc(Cl)cc1C`?
Arbovirus inh: 1.7; Mtb H37Rv: 9.6%; Mtb betalactam: 7.0

Results for Cc1ccc(C)c(CN2CCCNC2=O)c1 ?
RecA splice inh: 1.9; Arbovirus inh: 1.5; Mtb H37Rv: -4.9%; Mtb betalactam: -13.2; YopH inh: -58.6

What do the screens show for `COc1ccc2nc(NC(=O)C3=NN(c4ccccc4)C(=O)CC3)sc2c1`?
RecA splice inh: -3.1; Arbovirus inh: 47.6*; Mtb H37Rv: 11.2%; Mtb betalactam: 52.6; YopH inh: -43.9

How did CCOC(=O)C1CCCN(C(=O)c2ccc(C)c([N+](=O)[O-])c2)C1 (stereo unspecified) do in these assays?
RecA splice inh: -1.0; Arbovirus inh: 9.1; Mtb H37Rv: 10.8%; Mtb betalactam: 3.0; YopH inh: 10.7

How did O=C(OCCN1C(=O)c2ccccc2C1=O)C1CCN(S(=O)(=O)c2cccs2)CC1 do in these assays?
RecA splice inh: 3.7; Arbovirus inh: -6.2; Mtb H37Rv: -5.0%; Mtb betalactam: -3.3; YopH inh: -40.2

How did CN1CCc2c(C#N)c(N3CCOCC3)nc(NCC3CCCO3)c2C1 (stereo unspecified) do in these assays?
RecA splice inh: -11.4; Mtb H37Rv: -11.2%; Mtb betalactam: -1.7

What do the screens show for `O=C(O)/C=C/c1ccc(S(=O)(=O)Nc2ccc(C(=O)NCC(=O)O)cc2)cc1`?
RecA splice inh: 1.9; Arbovirus inh: -2.3; Mtb H37Rv: -5.2%; Mtb betalactam: -2.5
